Bioassay records deposited in PubChem by National Center for Advancing Translational Sciences (NCATS).
Menin-MLL FL inh = menin-MLL binding inhibition, fluorescein peptide. Fluorescence polarization, fluorescein-MLL peptide displacement from menin. AID 1766. 290,000 tested, under 10 active. FP activity change, % at 61.4 µM; inconclusive = falling polarisation curve, or a change in total fluorescence; inactive = total fluorescence flat and polarisation flat or rising; no compound was filed as active; the % refers to the polarisation; negative = inhibition;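 further: % of control where 0% means no effect; inhibitors lower the polarisation; unlabelled MLL peptide was the positive control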
gsp antagonist = gsp mutant antagonism; gsp-mutant cells, cAMP HTRF, 30 min; control for the full effect not named in the record; AID 624288; 340,000 tested, 0.4% active; Potency, µM (top dose mostly 76.9 µM), without a hit: at the top dose activity change, negative = inhibition, usual class: inhibitors; active = falling curve of any shape with a large fitted effect; inconclusive = falling curve, mostly with a smaller effect; inactive = flat or rising curve; cell line not stated here;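 further: intracellular cAMP measured with PDE inhibitor Ro 20-1724 present during compound exposure; potency means the concentration at half of the fitted maximal effect; on the % scale 0 is the no-effect control and ±100 the full control effect; nearly all actives have a fitted effect of over 65% in size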
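G418-selected cells were plated in DMEM/10% FBS for 16-24 h at 37C, then treated with compounds plus the PDE inhibitor […] (300 uM solution added) for 30 min at 37C. Intracellular cAMP was measured by HTRF after 30 min lysis at room temperature.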
gsp agonist = gsp mutant agonism. gsp mutant cells, cAMP HTRF, 30 min; control for the full effect not named in the record. Potency, µM (titrated, usually from 76.9 µM), inactives show top-dose activation (cAMP increase), most hits filed as activators. 340,000 tested, 0.13% active; active = well fitted activation curve with a large enough effect; inconclusive = small, poorly fitted or top-dose-only effect, or another doubt; inactive = no such curve, though single readings can be large or run the other way; cell line not stated here;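 further: phosphodiesterase inhibitor Ro 20-1724 added with compounds to block cAMP breakdown; potency means the concentration at half of the fitted maximal effect; nearly all actives have a fitted effect of over 60% in size; about a fifth of the inactives were tested at one dose only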
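Cells in DMEM/10% FBS with G418 were pretreated with compounds in DMSO plus […] (300 uM stock) for 30 min at 37C. cAMP was measured by HTRF (cAMP-d2 plus anti-cAMP antibody-K) after 30 min at room temperature.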
D2 agonist = activates the human D2 dopamine receptor; DiscoveRx PathHunter D2 beta-arrestin, luminescence, 90 min; 100% = 57 uM dopamine signal; activation, % (test concentration not listed); 360,000 tested, 0.084% active; in the data active = activation above about 40%; inconclusive = about 15% to 40%; inactive = below about 15%; further: compound concentration not given in the record; the text of the record calls up to 30% inactive
Target sequence (P14416 whole entry, looked up): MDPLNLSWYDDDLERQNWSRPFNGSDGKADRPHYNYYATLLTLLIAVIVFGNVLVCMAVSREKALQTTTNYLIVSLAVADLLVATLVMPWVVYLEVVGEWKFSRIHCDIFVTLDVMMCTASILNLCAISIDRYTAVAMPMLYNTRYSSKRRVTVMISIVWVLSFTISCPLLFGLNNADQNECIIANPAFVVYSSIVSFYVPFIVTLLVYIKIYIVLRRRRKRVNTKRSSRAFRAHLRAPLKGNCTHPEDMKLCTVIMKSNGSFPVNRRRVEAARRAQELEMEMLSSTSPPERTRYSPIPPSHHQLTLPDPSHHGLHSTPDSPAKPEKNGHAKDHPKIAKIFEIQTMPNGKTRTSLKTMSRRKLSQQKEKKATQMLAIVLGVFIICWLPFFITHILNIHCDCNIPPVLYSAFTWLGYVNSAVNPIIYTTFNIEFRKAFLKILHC
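Agonist mode: compounds alone added to overnight-plated D2 PathHunter cells for 90 min at 37 C, with 57 uM final dopamine (EC100) defining full response. Beta-arrestin recruitment detected by chemiluminescent reagent, read after 1 h at ambient temperature.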
ClpP mod = qHTS Assay for Activators of ClpP; purified B. subtilis ClpP, FRET peptide cleavage, 20 min; 340,000 tested, 1.9% active; ATP-dependent Clp protease proteolytic subunit (Bacillus subtilis (strain 168)), P80244; Potency, µM (highest dose often 57.5 µM), for inactives: at the highest dose activity change, negative = active; active = well fitted falling curve with a large enough effect; inconclusive = small, poorly fitted or top-dose-only effect; inactive = no such curve, though single readings can be large or run the other way; further: potency means the concentration at half of the fitted maximal effect; the source files actives as falling curves though it sought activators and does not explain the sign; nearly all actives have a fitted effect of over 65% in size; many hits overshoot -100%
Target sequence (P80244 whole entry, looked up): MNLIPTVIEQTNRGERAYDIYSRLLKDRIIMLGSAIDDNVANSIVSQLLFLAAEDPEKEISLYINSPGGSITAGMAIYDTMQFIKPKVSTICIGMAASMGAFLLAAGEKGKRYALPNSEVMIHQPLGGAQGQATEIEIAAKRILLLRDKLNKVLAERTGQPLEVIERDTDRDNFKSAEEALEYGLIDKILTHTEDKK
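Buffer: 100 mM Tris/HCl pH8, 100 mM KCl, 0.05% low protease BSA, 2.5% glycerol, 0.01% Tween-20. ClpP 10 microg/mL final; 20 min RT; delta FRET normalized to ADEP and DMSO controls.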
Sfp PPTase inh = inhibitors of Bacillus subtilis Sfp phosphopantetheinyl transferase | 310,000 tested, 3.5% active | AID 1490 | Biochemical Sfp PPTase activity, qHTS | Q9F4F7 | Potency, µM, for inactives: max response, negative = inhibition, actives largely listed as inhibitors; active means well fitted inhibition curve with a large enough effect; inconclusive means small, poorly fitted or top-dose-only effect, or another doubt; inactive means no such curve, though single readings can be large or run the other way;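 further: the enzyme is Sfp with the accession as filed and its product quenches rhodamine fluorescence; potency means the concentration at half of the fitted maximal effect; 0% = enzyme reaction without inhibitor and -100% = no enzyme wells; top concentration of the series not given in the record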
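Buffer: 50 mM Hepes-Na pH 7.6, 10 mM MgCl2, 0.01% Nonidet P-40, 0.01% BSA. Enzyme 15 nM, pre-exposed to compound 15 min; substrates then added and fluorescence change tracked over 30 min.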
PINK1 modulator = modulators of PINK1 expression; PINK1 immunofluorescence, high-content cytometry, 24 h; 410,000 tested, 0.2% active; Potency, µM (doses to about 76.6 µM), for the others: top-dose activation (PINK1 increase), hits mostly activators; active = well fitted activation curve with a large enough effect; inconclusive = small, poorly fitted or top-dose-only effect; inactive = flat fitted curve, though single readings scatter; cell line not stated here;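 further: potency means the concentration at half of the fitted maximal effect; % of control where 0% means no effect; nearly all actives have a fitted effect of over 65% in size; a mitochondrial uncoupler was the plate control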
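A stable cell line was treated with compounds at 5 concentrations for 24 hours, with CCCP as control. PINK1 levels and mitochondrial localization were measured by immunofluorescence with mitochondrial, cell and nuclear markers after fixation, read by laser-scanning cytometry.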
An asterisk follows results filed as active; ? = inconclusive; / = not tested or not shown; & = joins results of further samples; [ ] = dose if it differs, or a comment. The order is random. Share with any hit: about 5.1%.

SMILES | Menin-MLL FL inh | gsp antagonist | gsp agonist | D2 agonist | ClpP mod | Sfp PPTase inh | PINK1 modulator
COc1ccc(OC)c(CNC(=O)CCNC(=O)Cn2ccc3ccccc3c2=O)c1 | ? | 10% | -19% | -2.2 | -10% | 18% | -0.5%
Cc1cc(O)c(-c2cc(C(=O)Nc3sc4c(c3C(=O)NCc3ccco3)CCC4)[nH]n2)cc1C | 4.8 | -5% | ? | 7.2 | 4.0% | 1% | 4.8%
COc1cc2c(cc1OC)C(Nc1ccccc1)=NC(C)(C)C2 | 4.2 | 7% | 6%[15.4 µM] | -3.2 | -2.3% | 30% | 2.9%
O=C(Nc1sc2c(c1C(=O)O)CCCC2)c1cccs1 | 2.4 | ? | 15% | -2.5 | 2.6% | 1% | /
CC(C)CCOc1ccc(Cl)cc1CN1CCOCC1 | 4.6 | -5% | 0% | -2.1 | -0.4% | -5% | 7.2%
Cc1cn([C@H]2C[C@H](O)[C@@H](CNCc3ccc(N4CCN(C)CC4)cc3F)O2)c(=O)[nH]c1=O | / | / | 13% | -2.2 | -5.9% | / | 0.2%
CC1CCC(NC(=O)COC(=O)CNC(=O)c2ccc3ccccc3c2)CC1 (centres undefined) | / | -12% | -9% | 7.9 | -7.6% | / | 0.3%
COc1ccccc1N(CC(=O)NCCN1CCOCC1)S(=O)(=O)c1ccc(C)cc1 | / | 2% | -4%[15.4 µM] | -5.1 | -1.8% | / | 0.1%
Cc1ccc(NC(=O)CCC(=O)NNC(=O)Nc2cccc(Cl)c2)c(C)c1 | 1.1 | -1% | -45%[inhibitor] | -2.0 | -0.7% | -5% | 1.9%
CS(=O)(=O)c1cccc(-c2nnc(NC(=O)c3ccc(S(=O)(=O)N4CCCC4)cc3)o2)c1 | / | 5% | -2% | -1.2 | 1.2% | / | 1.0%
O=C1c2ccccc2C(O)(c2ccccc2)N1c1ccc([N+](=O)[O-])cc1Cl (centres undefined) | / | -10% | 53%[15.4 µM] | -0.2 | ? | / | 3.0%
O=S(=O)(c1cc(Cl)cc(Cl)c1)N1CCCC1c1nc2ccccc2s1 (centres undefined) | 0.0 | -22% | -16% | -1.0 | -0.6% | 6% | 1.4%
COc1cc2c(cc1OC)CN(C(=O)c1ccc(S(=O)(=O)N(C)c3ccccc3)cc1)CC2 | -2.3 | -2% | -20% | 8.4 | / | 13% | 2.4%
Cc1cccc(-c2noc(-c3c(C)noc3C)n2)c1 | 1.2 | -4% | -25%[15.4 µM] | -9.7 | / | 19% | -1.2%
CCC1(c2ccc(F)cc2)NC(=O)N(CC(=O)Nc2cccc(S(=O)(=O)N3CCOCC3)c2)C1=O (centres undefined) | / | 0% | 0% | 0.2 | -1.4% | / | 3.5%
O=c1c(Cl)c(N2CCN(c3ccc(F)cc3)CC2)cnn1C12CC3CC(CC(C3)C1)C2 | 1.8 | -33% | 0% | 0.7 | -0.5% | -10% | ?
CCCCN(CC)Cc1c(O)ccc2c3c(c(=O)oc12)CCC3 | 4.5 | 9% | 14% | -1.5 | 3.9% | 5% | 2.0%
CCN1CCN(Cc2nc(N)nc(Nc3ccc(C)c(C)c3)n2)CC1 | -0.8 | 7% | 3% | -3.7 | -2.2% | -2% | 44%[38.3 µM]
CNC(=O)c1ccc(N(Cc2ccccc2C)S(C)(=O)=O)cc1 | -0.8 | 6% | -17% | 1.5 | -2.5% | 20% | -0.3%
COc1cccc(/C=C2\SC(N3CCC(C)CC3)=NC2=O)c1OC | -2.6 | -12% | 3% | -1.5 | -2.7% | 50µM* | -2.1%
O=C(C1CCC(CNS(=O)(=O)c2cccs2)CC1)N1CCCCC1 (centres undefined) | 0.6 | 1% | -14% | -0.4 | 1.3% | 16% | 0.1%
Cc1cnc(C(=O)OCC(=O)NC(=O)c2ccccc2)cn1 | / | 4% | 19%[15.4 µM] | -2.7 | -1.4% | / | 1.2%
CC(NC(=O)CCN1C(=O)c2ccccc2C1=O)c1ccc2c(c1)CCCC2 (centres undefined) | 3.8 | 5% | -26% | -1.9 | 0.7% | 16% | 1.1%
CC(CCc1ccccc1)NC(=O)CCNC(=O)Cn1ccc2ccccc2c1=O (centres undefined) | -2.2 | 6% | 0% | 1.9 | / | 10% | 6.0%
COc1ccc(C2c3[nH]c4ccccc4c3C[C@H]3C(=O)N(CCCO)CC(=O)N23)cc1OC (some centres undefined) | -5.8 | 10% | -1%[15.4 µM] | -0.6 | 6.5% | 9% | 3.8%
CCNC(=O)C(CCSC)NS(=O)(=O)c1ccc(C)cc1 (centres undefined) | -0.7 | 13% | -21% | 2.6 | 0.5% | -5% | 0.1%
O=C(CSc1nnc(-c2cccc(F)c2)o1)NC1CCCC1 | 3.4 | 0% | 1% | -1.9 | / | 16% | 5.1%
COc1ccc(-c2nc3ccccc3c(=O)n2CCOc2ccc(C)cc2C)cc1 | 5.6 | -8% | 25% | -6.0 | ? | -5% | 9.0%
COc1ccccc1NC(=O)c1nnn(CC(=O)Nc2cc(C)cc(C)c2)c1N | / | 9% | 11% | -3.4 | ? | 7% | 6.7%
O=C(CN1C(=O)COc2ccccc21)NCCCN1CCN(Cc2ccccc2)CC1 | 5.4 | 7% | -26% | -1.4 | 0.7% | 9% | -5.0%[38.3 µM]
O=C1NC(=S)N/C1=C/c1cccn1-c1ccc([N+](=O)[O-])cc1 | 8.5 | -2% | -32% | 2.0 | / | ? | -0.1%
Cc1ccc(S(=O)(=O)N2CCCCC2CCNC(=O)C(=O)NCC2CCCO2)cc1 (centres undefined) | / | 0% | 7% | 0.0 | -2.3% | / | -0.9%
COc1cc(NC(=O)COC(=O)C2CC2)c(C)cc1[N+](=O)[O-] | 3.4 | -16% | ? | -3.3 | 0.1% | 20% | 2.7%
COc1cccc(CNC(=O)CN2C(=O)c3ccccc3S2(=O)=O)c1 | / | 10% | -15%[15.4 µM] | -2.0 | / | / | 3.0%
O=C(NC1CCCC1)c1ccc(COCC(F)(F)F)o1 | 4.7 | -9% | 33% | 0.2 | -2.1% | 20% | /
CN(C)C(=O)CCc1ccc2c3c([nH]c2c1)[C@]1(C)[C@@H](C(=O)N2CCOCC2)C[C@H](CC(=O)NCc2ccco2)C(=O)N1CC3 | / | 7% | / | -1.2 | -1.7% | / | -0.6%
CCOC(=O)C(NC(=O)CC)(Nc1ccc(S(N)(=O)=O)cc1)C(F)(F)F (centres undefined) | -0.7 | 8% | ? | -3.0 | -0.2% | -4% | 0.2%
C/C(=N\NS(=O)(=O)c1ccc(Cl)cc1)c1ccc(NC(=O)c2ccco2)cc1 | -0.2 | -12% | -2%[15.4 µM] | 0.4 | -1.2% | -5% | 3.0%
O=C(/C=C/c1ccccc1)NCCOc1ccccc1 | 1.2 | 8% | -3% | -0.6 | -2.3% | 7% | -1.6%
CS(=O)(=O)Nc1cccc(C2=NN(S(C)(=O)=O)C(c3ccc4c(c3)OCO4)C2)c1 (centres undefined) | 27 | -4% | -8% | -0.7 | -2.9% | 19% | 2.4%
Cc1noc(C)c1Cc1ccc(O)cc1 | 0.2 | 1% | 4% | -2.2 | -3.0% | -2% | 0.3%
Cc1ccccc1-c1noc(C23CC4CC(CC(C4)C2)C3)n1 | -0.4 | -5% | 14% | -1.5 | 0.9% | -4% | /
CCCC(C)NC(=O)c1c2c(nc3ccccc13)CCC2 (centres undefined) | 2.1 | -7% | 9%[15.4 µM] | -2.5 | -2.7% | 1% | 1.8%
COC(=O)C1CC(O)CN1C(=O)c1ccco1 (centres undefined) | -2.2 | 8% | 8% | -3.2 | -0.3% | -11% | 7.2%[38.3 µM]
COc1ccccc1CNc1nc(NCc2ccccc2OC)c2sccc2n1 | / | / | / | -4.8 | ? | / | ?
O=C(CN1CCN(c2ccccc2)CC1)Nc1ccc2c(c1)OCCO2 | 2.3 | -3% | 51%[15.4 µM] | 14 | -0.4% | 16% | -0.6%
CC(NC(=O)CCNS(=O)(=O)c1cccc2nsnc12)c1ccccc1 (centres undefined) | -0.1 | 3% | 5% | -0.2 | -1.0% | 15% | -0.1%&-1.0%
CN(Cc1ccccc1)C(=O)CSc1nc2cc(C(=O)N3CCC(C(N)=O)CC3)ccc2c(=O)n1-c1ccccc1 | -0.6 | 0% | -8% | -6.4 | -6.7% | 12% | -0.7%
CN(c1ccccc1)S(=O)(=O)c1ccc(Cl)c(C(=O)OCC(=O)N2CCOCC2)c1 | -1.3 | -46% | 30%[15.4 µM] | -1.3 | -1.8% | 18% | -0.9%
Cc1cc(-c2ccc(S(=O)(=O)N3CCN(c4ccccc4F)CC3)s2)on1 | 2.6 | 5% | -12% | 0.2 | -6.0% | 6% | 5.3%

(more compounds)
SMILES | Menin-MLL FL inh | gsp antagonist | gsp agonist | D2 agonist | ClpP mod | Sfp PPTase inh | PINK1 modulator
COc1ccc(OC)c2c1sc(=NC(=O)C(C)C)n2C | -0.8 | 1% | ? | -5.6 | -14% | 5% | 9.8%
CCN(CC)CCC(O)(c1ccc2c(c1)OCO2)c1cc(OC)c(OC)c(OC)c1 (centres undefined) | / | 8% | 17% | -4.8 | / | / | -0.1%
O=C(O)c1ccccc1Nc1cc(Cl)c2nonc2c1[N+](=O)[O-] | 1.0 | ? | -1% | 7.5 | / | ? | 4.7%
CC1(C)CC(=O)C(C(c2ccncc2)C2C(=O)CC(C)(C)CC2=O)C(=O)C1 | 4.2 | -9% | 2% | -4.0 | 0.3% | 4% | 1.5%
O=c1[nH]c2ccc(S(=O)(=O)N3CCCCC3)cc2[nH]c1=O | 0.4 | 3% | 0% | -1.2 | ? | 4% | 0.5%
O=C(O)COc1ccc(S(=O)(=O)NCCc2ccccc2)cc1 | -0.9 | -1% | 20% | 0.1 | 1.1% | 26% | 1.7%
